DUX4 inh = blocks DUX4-driven transcriptional activation; 293T-iDUX4 ZSCAN4-Gaussia luciferase reporter, 24 h; stronger effect = lower value; activity change, negative = inhibition, % (no concentration beside the values); actives 0.8% (n = 37,000); AID 1224904;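 active = -10% or lower and over 25 points stronger than a control reporter; inconclusive = -10% or lower with a smaller gap; inactive = above -10%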;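 note: 0% = median of neutral control wells and -100% = median of positive control wells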
DUX4 inh difference = recorded beside DUX4 inh, whose call it bears; Gaussia minus Italica difference, %; measured here: selective DUX4 reporter inhibition;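 worked out from the two reporters; negative = selective loss of the DUX4 reporter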
DUX4 inh control = recorded beside DUX4 inh, whose call it bears; activity change, negative = inhibition, %; measured here: Italica tet-on control reporter;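 0 = neutral control and -100 = positive control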
Starred values were filed as active, the others as inactive; ? = inconclusive; · = not tested or not shown.

SMILES	DUX4 inh	DUX4 inh difference	DUX4 inh control
COc1ccc(S(=O)(=O)N2CC3(CN(C(=O)c4cccnc4)[C@@H](CO)c4c3c3ccc(OC)cc3n4C)C2)cc1	?	·	·
C(=C\c1ccc(C2[C@@H]3CN(Cc4cocn4)C[C@H]2N3)cc1)/c1ccccc1 (some centres not stated)	?	0	-2.9
CC(C)COC(=O)N(C)C[C@@H]1OCc2cn(nn2)CCCC(=O)N([C@H](C)CO)C[C@@H]1C	4	2	1.7
CCC(=O)Nc1ccc2c(c1)C(=O)N(C)C[C@@H](OC)[C@H](C)CN(C(=O)COC)[C@H](C)CO2	14	10	3.4
O=C(C[C@@H]1CC[C@@H]2[C@H](COC[C@H](O)CN2Cc2ccncc2)O1)NCc1ccncc1	5	3	1.1
CN1c2ccc(C3=CCCCC3)cc2[C@@H]2[C@@H](CCN2S(=O)(=O)c2ccccc2F)[C@H]1CO	12	3	9.5
COC(=O)[C@H]1[C@H](CO)[C@H]2Cn3c(ccc(-c4cccc(F)c4)c3=O)[C@H]2N1S(C)(=O)=O	-5	-3	-2.3
C[C@@H]1CN([C@@H](C)CO)C(=O)CCCn2cc(nn2)CO[C@@H]1CN(C)C(=O)c1cc(-c2ccccc2)on1	-2	-3	1.1
O=S(=O)(c1ccccc1)N1CCCCN2[C@H](CO)[C@@H](c3ccc(C#CC4CCCC4)cc3)[C@@H]2C1	7	4	3.7
COc1ccc(NC(=O)N[C@H]2CC[C@@H](CCNC(=O)CN3CCOCC3)O[C@@H]2CO)cc1	-1	0	-1.4
CCN(C[C@H]1[C@H](c2ccccc2)[C@H](CO)N1C(C)=O)C(=O)NC(C)C	-4	-5	0.8
O=C(C[C@@H]1C[C@@H]2c3cc(NC(=O)Nc4ccccc4F)ccc3O[C@@H]2[C@H](CO)O1)NCc1ccncc1	4	2	2.4
C[C@H]1CCCCO[C@@H](CN(C)C(=O)NC2CCCCC2)[C@@H](C)CN([C@@H](C)CO)C(=O)c2cc(NC(=O)Nc3cccc4ccccc34)ccc2O1	2	4	-1.7
COc1cccc(-c2ccc3c(c2)[C@@H]2[C@@H](CCN2C(=O)c2ccccn2)[C@@H](CO)N3)c1	-2	1	-3.1
O=C(C[C@@H]1CC[C@@H]2[C@H](COC[C@@H](O)CN2CCc2ccccc2)O1)N1CCC(Cc2ccccc2)CC1	?	·	·
CNC[C@H]1Oc2ncc(C3=CCCCC3)cc2C(=O)N([C@@H](C)CO)C[C@H]1C	3	21	-19
O=C(NC[C@@H]1[C@@H](c2ccccc2)[C@H](CO)N1C(=O)Cc1cccnc1)C1CC1	3	-1	4.6
CCS(=O)(=O)NCC[C@@H]1CC[C@@H](NS(=O)(=O)c2ccccc2C)[C@H](CO)O1	1	0	1.5
CN1C[C@@H](O)COC[C@H]2O[C@H](CC(=O)N3CCN(c4ccccc4)CC3)CC[C@@H]21	2	0	2.2
C[C@H](NC(=O)C[C@H]1C[C@H]2c3cc(NS(=O)(=O)c4ccc(F)cc4)ccc3O[C@H]2[C@H](CO)O1)c1ccccc1	?	·	·
COc1ccc(S(=O)(=O)Nc2ccc3c(c2)C(=O)N([C@H](C)CO)C[C@@H](C)[C@H](CN(C)C(=O)Nc2cccc4ccccc24)OCCCC[C@@H](C)O3)cc1	-3	-2	-1.8
COc1ccc(-c2ccc3c(c2)[C@@H]2[C@@H](CCN2C(=O)c2cccc(F)c2)[C@H](CO)N3C)cc1	5	11	-6.2
COc1ccc(S(=O)(=O)N(C)C[C@H]2OCCCC[C@@H](C)Oc3ccc(NC(=O)Cc4ccccc4)cc3C(=O)N([C@@H](C)CO)C[C@@H]2C)cc1	-1	-9	8.0
CC(=O)NC[C@H]1[C@@H](c2ccccc2)[C@@H](CO)N1C(=O)Cc1ccncc1	-3	-3	0.5
COc1ccc(NC(=O)N(C)C[C@@H]2OCc3cnnn3CCCC(=O)N([C@@H](C)CO)C[C@@H]2C)c(OC)c1	1	-1	2.4

Random excerpt: 2 entries already listed, in no set order.
SMILES	DUX4 inh	DUX4 inh difference	DUX4 inh control
O=S(=O)(c1ccccc1)N1CCCCN2[C@H](CO)[C@@H](c3ccc(C#CC4CCCC4)cc3)[C@@H]2C1	7	4	3.7
C(=C\c1ccc(C2[C@@H]3CN(Cc4cocn4)C[C@H]2N3)cc1)/c1ccccc1 (some centres not stated)	?	0	-2.9

Later entries.
SMILES	DUX4 inh	DUX4 inh difference	DUX4 inh control
CC1C=NC(S(=O)(=O)N2CC[C@@H]3[C@H](CO)N(C)c4ccc(C#Cc5ccccc5)cc4[C@@H]32)=N1 (some centres not stated)	-4	-5	1.3
CC(C)C#Cc1ccc([C@H]2[C@H]3CN(C(=O)Cc4ccccc4)CC(=O)N3[C@H]2CO)cc1	7	6	1.3
C[C@@H]1CN([C@H](C)CO)C(=O)CCCn2cc(nn2)CO[C@@H]1CN(C)C(=O)Nc1ccc(-c2cccs2)cc1	-1	2	-2.7
C[C@H](CO)N1C[C@H](C)[C@H](CN(C)S(=O)(=O)c2cccs2)Oc2ccc(NC(=O)CCCCCC(=O)Nc3ccccc3N)cc2CC1=O	-2	-4	1.6
C/C=C/c1ccc2c(c1)[C@@H]1[C@@H](CCN1S(=O)(=O)c1ccccc1OC)[C@H](CO)N2C	19	20	-1.1
O=C(Nc1ccccc1F)N1C[C@H]2[C@@H](c3ccccc31)[C@H](CO)N2C(=O)c1ccccc1F	-4	-6	2.3
COc1ccc2c3c(n(C)c2c1)[C@H](CO)N(C(=O)Nc1ccc(F)cc1)CC31CCN(S(=O)(=O)c2cccc(C)c2)CC1	?	·	·
O=C(C[C@H]1CC[C@H]2[C@@H](COC[C@@H](O)CN2C(=O)c2ccccc2)O1)Nc1ccccc1	1	-1	2.1
C[C@H](CO)N1C[C@H](C)[C@@H](CN(C)C(=O)CN2CCOCC2)Oc2ncc(C#C[C@@H](C)O)cc2C1=O	0	2	-1.4
N#C[C@H]1[C@H](c2ccccc2-c2ccc(F)cc2)[C@H](CO)N1C(=O)NC1CCCCC1	?	·	·
CO[C@@H]1CN(C)C(=O)c2ccc(NC(=O)c3cccc(Oc4ccccc4)c3)cc2OC[C@@H](C)NC[C@H]1C	?	·	·
C[C@@H]1CCCCO[C@H](CN(C)S(=O)(=O)c2ccccc2)[C@@H](C)CN([C@H](C)CO)C(=O)c2cc(NC(=O)CCC(F)(F)F)ccc2O1	3	-4	7.1
COc1cccc(C#Cc2ccc([C@H]3[C@H](CO)N4C(=O)CN(C(=O)C5CC5)C[C@@H]34)cc2)c1	-3	-5	1.3
O=C(Cc1cccnc1)N1CC(=O)N2[C@H](C1)[C@H](c1ccc(C#CC3CCCCC3)cc1)[C@@H]2CO	-1	-1	0.2
CN(C)C(=O)c1cccc(-c2ccc(C3[C@@H]4CN(Cc5cocn5)C[C@H]3N4)cc2)c1 (some centres not stated)	10	0	10
COc1ccc(-c2ccc3n(c2=O)C[C@@H]2[C@@H](CO)[C@H](C(=O)N(C)C)[C@H]3N2Cc2cncnc2)cc1	9	6	2.8
Cc1ccc(S(=O)(=O)N2C[C@@H](O)COC[C@H]3O[C@H](CC(=O)N[C@@H]4CCN(Cc5ccccc5)C4)CC[C@@H]32)cc1	-7	-7	0.6
C[C@@H]1CN([C@@H](C)CO)S(=O)(=O)c2ccc(C3=CCCC3)cc2O[C@H]1CN(C)C(=O)c1ccccn1	7	4	3.2
COc1ccc2c3c(n(C)c2c1)[C@H](CO)NCC31CN(CC2CCOCC2)C1	19	10	8.7
CN(C[C@H]1N[C@@H](CO)[C@H]1c1ccc(-c2cccnc2)cc1)C(=O)CC1CC1	1	1	-0.7
O=C(C[C@H]1CC[C@H]2NC[C@@H](O)COC[C@@H]2O1)NCc1ccc2c(c1)OCO2	0	4	-4.1
COc1ccc2c3c(n(C)c2c1)[C@@H](CO)N(C(C)=O)CC31CCN(Cc2cccnc2)CC1	12	0	12
C[C@@H](O)C#Cc1ccc([C@@H]2[C@H](CO)N3CCCCN(C(=O)Nc4ccccc4)C[C@@H]23)cc1	14	-4	18
O=C(NCc1ccc2c(c1)OCO2)[C@@H]1[C@@H](CO)[C@@H]2Cn3c(cccc3=O)[C@H]1N2Cc1ccncc1	-8	-10	1.9
COc1ccc2c3c(n(C)c2c1)[C@@H](CO)N(Cc1ccccc1OC)CC31CCN(C(=O)C2CC2)CC1	?	·	·

The final 3 entries of the section before come first, to join the parts.
SMILES	DUX4 inh	DUX4 inh difference	DUX4 inh control
C[C@@H](O)C#Cc1ccc([C@@H]2[C@H](CO)N3CCCCN(C(=O)Nc4ccccc4)C[C@@H]23)cc1	14	-4	18
O=C(NCc1ccc2c(c1)OCO2)[C@@H]1[C@@H](CO)[C@@H]2Cn3c(cccc3=O)[C@H]1N2Cc1ccncc1	-8	-10	1.9
COc1ccc2c3c(n(C)c2c1)[C@@H](CO)N(Cc1ccccc1OC)CC31CCN(C(=O)C2CC2)CC1	?	·	·
COc1ccc(-c2cnc3c(c2)C(=O)N([C@@H](C)CO)C[C@@H](C)[C@@H](CN(C)Cc2ccc(C(=O)O)cc2)O3)cc1	1	2	-0.6
C[C@@H]1CN([C@H](C)CO)S(=O)(=O)c2ccc(C#CC3(O)CCCC3)cc2O[C@H]1CN(C)C(=O)Nc1cccc(F)c1	-5	-5	0.8
CO[C@H]1CN(C)C(=O)c2cc(NC(=O)c3cc(C)on3)ccc2OC[C@@H](C)N(C)C[C@H]1C	6	6	0.4
C/C=C/c1ccc([C@@H]2[C@H](CO)N3C(=O)CN(C(=O)Nc4ccccc4F)C[C@@H]23)cc1	?	·	·
O=C(NC[C@@H]1N[C@@H](CO)[C@@H]1c1ccccc1)C1CC1	4	2	2.1
Cc1ccccc1S(=O)(=O)N1C[C@@H](O)COC[C@@H]2O[C@H](CC(=O)NCc3ccccc3Cl)CC[C@H]21	0	0	0.3
C[C@@H]1CN([C@H](C)CO)C(=O)c2cccc(N(C)C)c2O[C@H]1CN(C)S(=O)(=O)c1cn(C)cn1	-5	-4	-0.8
N#C[C@@H]1[C@@H](c2ccc(C3=CCCCC3)cc2)[C@H](CO)N1S(=O)(=O)c1cccc(F)c1	-1	-1	-0.3
CCS(=O)(=O)N1Cc2cc(C(=O)NCCOC)nc(-c3cccc(-c4ccncc4)c3)c2[C@H]1CCO	7	21	-14
CCCN1[C@H](C(=O)OC)[C@@H](CO)[C@@H]2Cn3c(ccc(-c4cncnc4)c3=O)[C@@H]21	4	5	-1.7
Cc1ccc(S(=O)(=O)N2CC[C@@H]3[C@H](CO)Nc4ccc(C#Cc5ccccc5F)cc4[C@@H]32)cc1	-3	-2	-1.1
COc1ccccc1NC(=O)N[C@H]1CC[C@@H](CCNC(=O)c2ccc3c(c2)OCO3)O[C@H]1CO	1	6	-4.6
CC(=O)N(C[C@@H]1N[C@@H](CO)[C@H]1c1ccc(-c2ccc(F)cc2)cc1)C(C)C	0	2	-1.9
O=C([C@H]1[C@H](CO)[C@H]2Cn3c(cccc3=O)[C@@H]1N2CCC(F)(F)F)N1CCCCC1	6	1	5.9
Cc1noc(C)c1NC(=O)N(C)C[C@H]1Oc2c(cccc2N(C)C)C(=O)N([C@H](C)CO)C[C@@H]1C	5	5	0.5
OC[C@@H]1[C@@H](c2ccc(-c3ccc(F)cc3)cc2)[C@@H]2CN(Cc3cccnc3)CCCCN12	1	-8	9.1
O=C(C[C@H]1CC[C@H]2[C@@H](COC[C@H](O)CN2C(=O)Nc2ccc(Cl)c(Cl)c2)O1)NC1CCC1	9	12	-3.2
O=C(O)C[C@H]1C[C@@H]2c3cc(NC(=O)Nc4ccc(C(F)(F)F)cc4)ccc3O[C@@H]2[C@H](CO)O1	2	-1	3.2
COC(=O)C[C@H]1CC[C@@H]2[C@H](COc3ccc(NC(=O)Nc4c(C)noc4C)cc3C(=O)N2C)O1	-2	-5	2.4
O=C(C[C@@H]1CC[C@H]2[C@@H](COC[C@@H](O)CN2C(=O)c2ccc(F)cc2)O1)NCCCN1CCOCC1	11	-9	20
CC(C)C#Cc1ccc([C@@H]2[C@@H](C#N)N(C(=O)C3CCC3)[C@H]2CO)cc1	-2	4	-6.5
Cc1cccc(S(=O)(=O)N[C@H]2CC[C@H](CCNC(=O)Nc3cc(F)ccc3F)O[C@H]2CO)c1	-5	-8	2.9
N#C[C@@H]1[C@@H](c2ccccc2)[C@H](CO)N1C(=O)CN1CCOCC1	-2	0	-2.2
COc1cccc(-c2ccc([C@@H]3[C@@H](CO)N4C(=O)CN(C(=O)c5cccnc5)C[C@@H]34)cc2)c1	4	14	-9.8
CC(C)NC(=O)N1[C@@H]2c3cccc(=O)n3C[C@@H]2[C@@H](CO)[C@@H]1C(=O)N1CCC(Cc2ccccc2)CC1	5	4	0.1

Compound profiles, from the list above. Order of screens: DUX4 inh | DUX4 inh difference | DUX4 inh control
CN1C[C@@H](O)COC[C@H]2O[C@H](CC(=O)N3CCN(c4ccccc4)CC3)CC[C@@H]21 across the screens: 2 | 0 | 2.2
COc1ccccc1NC(=O)N[C@H]1CC[C@@H](CCNC(=O)c2ccc3c(c2)OCO3)O[C@H]1CO across the screens: 1 | 6 | -4.6
C(=C\c1ccc(C2[C@@H]3CN(Cc4cocn4)C[C@H]2N3)cc1)/c1ccccc1 (some centres not stated) across the screens: ? | 0 | -2.9
O=C(NC[C@@H]1N[C@@H](CO)[C@@H]1c1ccccc1)C1CC1 across the screens: 4 | 2 | 2.1
CC(=O)NC[C@H]1[C@@H](c2ccccc2)[C@@H](CO)N1C(=O)Cc1ccncc1 across the screens: -3 | -3 | 0.5

Not all compounds are listed. The share of hits here may be higher or lower than overall.
